Compound activity deposited in PubChem by ICCB-Longwood Screening Facility, Harvard Medical School.
AID504770 = growth inhibitors of E. coli YBA685 in a screen for V. cholerae RctB (chromosome II replication) inhibitors; E. coli YBA685 rctB-dependent plasmid, OD600 growth, 3 h; active compounds read low; z-score (test concentration not listed); 0.27% of 130,000 active; AID 504770;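 active = z-score under -2 on both plates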;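 note: wells of about 30 µL received 100 nL stock; score is relative to mean and SD of the test wells; the first replicate is given; strong numbers were not always called active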
Ba CapD inh = CapD enzyme inhibition; z-score (no concentration beside the values); 0.23% of 140,000 active; AID 492967; purified CapD enzyme, fluorescence intensity read-out; active compounds read low; some hits fall short of the stated cut;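 active = z-score under -4 in either of two replicates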;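 note: stock transfer was 100 nL into about 40 µL; score is relative to mean and spread of the plate; one replicate is shown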
* hit, by the source's call; . = no result given. Random draw from the library; 0.41% or so of the library scored in one or more.

SMILES	AID504770	Ba CapD inh
COc1cc(OC)cc(C(=O)OCCN(C2=NS(=O)(=O)c3ccccc32)c2ccccc2OC)c1	.	-0.45
N#Cc1cnn(-c2ncnc3sc(-c4ccccc4)cc23)c1N	-0.95	.
COc1ccc(NC(=O)c2ccc3ncccc3c2)cc1	1.6	-0.47
COc1ccc2c(c1)c(C(=O)N1CCN(C)CC1)c(C)n2-c1ccccc1	-0.65	0.39
c1ccc(-c2csc3ncnc(Sc4nnnn4-c4ccccc4)c23)cc1	0.15	.
CC(C)CC(Nc1ncnc2sc3c(c12)CCC3)C(=O)O (stereo not given)	-0.35	0.41
CCCCc1c(O)c2ccccc2n(CCCC)c1=O	1.9	3.2
CC(C)NC(=O)c1cc2c(s1)-c1ccccc1SC2	1.9	11
Cc1ccc(-n2c(SCC(=O)NCCc3ccc(S(N)(=O)=O)cc3)nc3n[nH]c(C)c3c2=N)cc1Cl	.	15
O=C(N(c1ccccn1)c1ccccn1)C12CC3CC(CC(C3)C1)C2	-0.75	.
Cc1nc2cc(S(=O)(=O)N3CCC(C(=O)NCc4ccoc4)CC3)ccc2n1C1CCCC1	0.2	-0.18
CCOC(=O)c1c(C)[nH]c(C)c1S(=O)(=O)NCC(=O)Nc1nccs1	-0.15	0.46
CCCCOc1ccc(C2CC(=O)C3=C(C2)c2c(ccc4ccccc24)NC3c2ccc(N(CC)CC)cc2)cc1 (stereo not given)	.	1.2
CN1CCN(c2nc(NCC3CCCO3)c3ccccc3n2)CC1 (stereo not given)	1.4	67
c1ccc2c(c1)OCC(C1=NCCN1)O2 (stereo not given)	.	5.7
CCOC(=O)c1cc(C)n(CC2CCC(C(=O)NCc3ccccc3)CC2)c1C (stereo not given)	-0.05	0.34
COc1ccccc1Nc1snc2sc(C(=O)c3ccc(C)cc3)c(N)c12	.	-0.14
COc1ccc2c(c1)CCc1sc(N)nc1-2	.	1.2
C/C(=C/C(=O)O)C(=O)Nc1sc2c(c1C#N)CCCC2	-1	-1.9
CCOc1ccccc1CNc1ncnc2c1nc1n2CCCCC1	0.7	-0.21
Cc1ccc2nc(-c3cccc(NC(=O)C4CCCCC4)c3)oc2c1	2.5	1.4
COc1ccccc1NC(=O)Cn1cnc2sc(C(=O)Nc3cc([N+](=O)[O-])ccc3OC)c(C)c2c1=O	.	-0.22
Cn1cnc2c(=O)oc3ccc(S(=O)(=O)NCCc4ccccc4)cc3c21	-0.05	0.39
CCOC(=O)c1cnc2ccccc2c1NCCCN(C)C	0	.
CS(=O)(=O)c1ccc2nc(NC(=O)Nc3ccccc3F)sc2c1	0.15	1.9
N/C(COc1ccccc1Cl)=N\O	-0.85	0.26
N#Cc1nn(-c2c(Cl)cc(C(F)(F)F)cc2Cl)c(N)c1S(=O)C(F)(F)F (stereo not given)	-0.2	.
O=c1c(Br)c(NCc2ccccc2)cnn1-c1ccc(F)cc1	.	-0.57
O=C(CSC1=NC2CCCCC2N1)N1CCOCC1 (stereo not given)	-0.45	.
Cc1nc(-c2cccs2)sc1-c1ccnn1C(=O)NC(C)C	0.75	91
N#CC(=C=[N-])c1nc2ccccc2nc1-[n+]1cccc(NC(=O)c2ccc(Br)o2)c1	0.5	.
COCCn1c(N)c(NCc2ccccc2)c(=O)n(CC(=O)NCCc2ccc(OC)c(OC)c2)c1=O	-1.2	.
COc1cc(N)c(-c2nc3ccccc3[nH]2)cc1OC	-0.55	106
C=CCn1cnc2c(nnn2-c2ccc(C)c(C)c2)c1=O	-0.3	.
CCOc1ccc(C(=O)N2CCC(C(N)=O)CC2)cc1	-0.6	0.57
Cc1ccc(NC(=O)CC2SC(=NC3(c4c(O)[nH]c(=O)[nH]c4=O)CCCC3)NC2=O)cc1 (stereo not given)	-0.85	5.9
Fc1ccc(N2N=C(c3ccc(Cl)cc3)CC2c2ccccc2)cc1 (stereo not given)	.	12
Cc1ccc(C(=O)NC(=O)CSc2n[nH]c(N)n2)cc1	-0.85	-0.14
O=C(N/N=C/c1ccc(OC(F)F)cc1)C1=COCCO1	-0.75	.
O=C(O)c1ccc(-c2ccc3c(c2)OCCO3)s1	2.2	.
CC1(C)Oc2ccc(NC(=O)Cc3ccc(F)cc3)cc2O1	.	-0.26
O=C1CCN(c2nc3ccc(Cl)cc3n3c(C(F)(F)F)nnc23)CC1	.	3.3
COc1ccc(CCC(N)=O)cc1OC	0.3	0.69
CN(C)C(=S)SCC(=O)Nc1ccc2c(c1)OCCO2	-1	.
c1cc(-c2nn[nH]n2)ccc1CN1CCCCC1	-0.3	0.065
Cn1cnnc1SCc1ccc(Cl)cc1	-0.35	-0.29
Cc1ccc(NC(=O)c2ccco2)cc1NC(=O)C(C)(C)Oc1ccc(Cl)cc1	2	.
CCC(C)(C)C(=O)N1CCC(C(=O)OC)CC1	0.15	0.31
NC(=O)NC(=O)CSc1nnc(C2CC2)n1N	-0.4	.
Cc1ccc(NC(=O)CSc2nc3c(c(=O)n2CCc2ccccc2)SCC3)cc1Cl	2	-0.73
Cc1nnc(N(C)C(=O)c2ccc3c(c2)OCO3)s1	-0.6	.
CC(C)N(CC(N)=O)C(=O)COc1ccccc1C#N	0.2	.
CCCCCCC#CCOC(=O)NCCc1c[nH]c2ccc(OC)cc12	.	0.005
COc1c(C)cc(S(=O)(=O)Nc2ccc(Cl)cn2)c(C)c1C	2.1	.
O=S(NC1CCCCC1)C12CC3CC(CC(C3)C1)C2 (stereo not given)	0.85	0.68
Cc1cc(C)nc(NS(=O)(=O)c2ccc(NC(=O)CSc3nc(C)cc(C)c3C#N)cc2)n1	.	0.57
COc1ccc(Oc2cccc(Cl)c2C#N)cc1	0.55	0.41
CCOc1ccccc1OCc1n[nH]c(=S)n1N	0.95	.
CC(=O)N(/C=C1\Sc2ccccc2C1=O)c1ccc(C(=O)O)cc1	.	-4.1
O=C(COC(=O)c1cc(=O)[nH]c(=O)[nH]1)NCc1ccccc1	0.2	.
Continuation.
SMILES	AID504770	Ba CapD inh
c1ccc(-c2ccc(-c3ccccn3)s2)nc1	-0.65	110
O=C(CSc1nnc2c(n1)-c1cccc3cccc-2c13)Nc1ccc([N+](=O)[O-])cc1	.	0.52
O=C(Cc1cccc2ccccc12)N1CCN(c2cccc(C(F)(F)F)c2)CC1	0.75	17
Cc1ccc(OCc2nn3c(C(C)(C)C)nnc3s2)cc1	-0.15	0.15
Cc1noc(C)c1CSc1nnc(-c2ccccc2Br)n1Cc1ccccc1	-0.6	.
CCn1c(=NC(C)=O)sc2ccccc21	-0.05	.
CC(=O)Nc1nc(CC(C)C)cc2c1c(=O)oc1ccccc12	0.55	0.47
N#C/C(=C(/O)CCl)c1ccccn1	0.1	-0.98
Cc1cccc(N=C(NO)c2ccccc2)c1	-0.95	0.25
COC(=O)CNC(=O)Cn1cnc2sc(C)c(S(=O)(=O)N3CCC(C)CC3)c2c1=O	0.5	-0.14
CCOC(=O)C1=C(c2ccccc2)NC(SCC(=O)OC)=C(C#N)C1c1cccnc1 (stereo not given)	.	-0.23
CC1CS(=O)(=O)CCN1N=Cc1ccc([N+](=O)[O-])o1 (stereo not given)	.	0.24
CCN(C(=O)CSc1nc2ccccc2s1)C1CCCCC1	-0.85	-0.69
Nc1nc2c(-c3c(F)cccc3Cl)nnn2c2cc(C(F)(F)F)cnc12	.	1.7
CCOC(=O)COc1cc(OCC(=O)OCC)c2c3c(c(=O)oc2c1)CCCC3	.	41
CN(C)/C=C/C(=O)C(F)(F)F	0.15	.
Cc1ccc(-n2cnc3cc(Nc4nnc(C)c5ccccc45)ccc32)cc1	.	-1
CC1C/C(=N\NC(=O)c2ccccc2)CC(C)(C)C1 (stereo not given)	0.15	.
Cc1cc(C)nc(Sc2ccc(NC(=O)c3ccc(OC(C)C)cc3)cc2)n1	.	-0.46
O=C(C1CCCN1S(=O)(=O)c1ccc(-c2ccc(=O)[nH]n2)s1)N1CCc2ccccc21 (stereo not given)	0.5	0.12
CCN1C(=O)/C(=C\c2ccc(N(CC)CC)cc2)SC1=S	-0.05	-0.81
Cc1nc(CC(=O)O)c(C)s1	-0.8	-0.5
CCOc1ccc(NC(=O)CC2CC(C)(C)OC2=O)cc1 (stereo not given)	-0.4	-0.17
CCOC(=O)C1CNC(=S)NC1(C)O (stereo not given)	-0.9	0.065
O=C(Nc1ccccc1)OCc1nccn1Cc1ccc(Cl)cc1	0.5	0.46
Cn1c(COc2ccc3c(c2)OCO3)n[nH]c1=S	-0.15	.
CCC12CN3CC(C)(CN(C1)C31C(=O)Nc3ccc(Br)cc31)C2=O (stereo not given)	-0.9	-0.76
O=c1[nH]c2ccccc2nc1/C=C(\O)c1ccc(C2CCCCC2)cc1	-0.1	5.2
Cc1ccc(-n2cc(-c3ccccc3)c3c(N4CCCC4)ncnc32)cc1	1.2	-0.38
O=C(NC1CC1)c1ccc2snnc2c1	-0.7	-0.55
COc1ccc(C2=NN(C(=O)c3ccc(Br)o3)C(c3ccccc3F)C2)cc1OC (stereo not given)	.	0.78
CCCCn1c(C)c(C(=O)OCC)c2cc(OC(=O)Cc3ccccc3)c3ccccc3c21	.	-0.49
O=C(O)C1CCC(CNCc2cccnc2)CC1 (stereo not given)	2.3	.
COC(=O)Nc1ncc(CN2CCCC2)s1	-0.65	1.1
Cc1ccc(/C=C2\CCCC3=C2Nc2nnnn2C3c2ccc(C)cc2)cc1 (stereo not given)	-0.05	-0.46
CC1CCN(C(=S)NC(=O)C2CCCCC2)CC1	2	-0.45
COc1ccccc1CNC(=O)COC(=O)c1ccncc1	-0.35	.
COc1cc(C2C(C#N)=C(C)NC3=C2C(=O)CC(c2ccc(Cl)cc2)C3)ccc1OC(C)=O (stereo not given)	.	41
CCOC(=O)/C(C#N)=C/c1cc(C)n(-c2ccc(C)cc2)c1C	-0.9	0.21
Cn1c(N)c(C(C[N+](=O)[O-])c2ccccc2Cl)c(=O)n(C)c1=O (stereo not given)	.	0.27
Cc1c(-c2ccccc2)oc2c(C(=O)N3CCC(=O)CC3)cccc2c1=O	0.3	.
CCOC(=O)C1C(=O)C=C(c2ccco2)CC1c1cccs1 (stereo not given)	0.15	-2
CCOC(=O)N1CCN(S(=O)(=O)c2ccc(Br)s2)CC1	-0.05	0.37
Brc1ccc2ncnc(NCCCN3CCOCC3)c2c1	-0.65	.
CC(=O)N(C)c1c(C)n(C)n(-c2ccccc2)c1=O	0.55	.
O=C1CC(c2ccccc2)C(=O)N1Cc1cccs1 (stereo not given)	-0.25	0.65
COc1ccc2nc3oc(C(=O)NC4CC4)cc3cc2c1	0.2	3.4
CCOC(=O)C1CCCN(Cn2nnn(-c3ccc(OC)cc3)c2=S)C1 (stereo not given)	0.55	.
O=C(c1ccccc1)c1ccc(-c2ccccc2)cc1	-0.55	-0.72
Cc1snc(-c2c(Cl)cccc2Cl)c1C(=O)O	-0.3	-0.095
COc1ccc(C(=O)Nc2ccccc2C(=O)NC(C(=O)O)C(C)C)cc1 (stereo not given)	-0.45	.
CCOCCCn1c(C)c(C)c(C#N)c1N	0	.
Oc1c(Cl)cc(Cl)cc1CNn1cnnc1	-0.65	.
O=S(=O)(/N=C(\N/N=C/c1ccccc1O)N1CCCC1)c1ccccc1	0.55	0.67
Cc1ccc(C(CC(=O)O)c2ccco2)cc1 (stereo not given)	0.5	3.2
N#Cc1cc2c(nc1SCc1ccccc1)CCC2	0.25	1
O=C(CSc1nc2ccccc2c(=O)n1NS(=O)(=O)c1ccc(Cl)cc1)c1ccccc1	.	0.66
CCOc1ccccc1N1CCN(Cc2ccsc2)CC1	-0.3	-0.045
C=C(C)CN(CC)C(=O)CSc1nc2ncc(Cl)cc2[nH]1	0.25	.
CCOC(=O)C1=C(C)N=c2s/c(=C\c3ccc(O)cc3)c(=O)n2C1c1ccc(OC)c(OCC)c1 (stereo not given)	.	-1.9

16 of the compounds above, comma-delimited.
canonical_smiles,AID504770,Ba CapD inh
COc1cc(OC)cc(C(=O)OCCN(C2=NS(=O)(=O)c3ccccc32)c2ccccc2OC)c1,.,-0.45
N#Cc1cnn(-c2ncnc3sc(-c4ccccc4)cc23)c1N,-0.95,.
COc1ccc(NC(=O)c2ccc3ncccc3c2)cc1,1.6,-0.47
COc1ccc2c(c1)c(C(=O)N1CCN(C)CC1)c(C)n2-c1ccccc1,-0.65,0.39
c1ccc(-c2csc3ncnc(Sc4nnnn4-c4ccccc4)c23)cc1,0.15,.
CC(C)CC(Nc1ncnc2sc3c(c12)CCC3)C(=O)O (stereo not given),-0.35,0.41
CCCCc1c(O)c2ccccc2n(CCCC)c1=O,1.9,3.2
CC(C)NC(=O)c1cc2c(s1)-c1ccccc1SC2,1.9,11
Cc1ccc(-n2c(SCC(=O)NCCc3ccc(S(N)(=O)=O)cc3)nc3n[nH]c(C)c3c2=N)cc1Cl,.,15
O=C(N(c1ccccn1)c1ccccn1)C12CC3CC(CC(C3)C1)C2,-0.75,.
Cc1nc2cc(S(=O)(=O)N3CCC(C(=O)NCc4ccoc4)CC3)ccc2n1C1CCCC1,0.2,-0.18
CCOC(=O)c1c(C)[nH]c(C)c1S(=O)(=O)NCC(=O)Nc1nccs1,-0.15,0.46
CCCCOc1ccc(C2CC(=O)C3=C(C2)c2c(ccc4ccccc24)NC3c2ccc(N(CC)CC)cc2)cc1 (stereo not given),.,1.2
CN1CCN(c2nc(NCC3CCCO3)c3ccccc3n2)CC1 (stereo not given),1.4,67
c1ccc2c(c1)OCC(C1=NCCN1)O2 (stereo not given),.,5.7
CCOC(=O)c1cc(C)n(CC2CCC(C(=O)NCc3ccccc3)CC2)c1C (stereo not given),-0.05,0.34

The results go on:
SMILES	AID504770	Ba CapD inh
N#Cc1cc(-c2ccc(Cl)cc2)cnc1Sc1c(Cl)cccc1Cl	.	-0.055
CSc1cccc(NC(=O)c2cc3c(ccc4ccccc43)o2)c1	-0.25	-0.58
CC(=O)N1CCC(C(=O)Nc2nc3ccc(Cl)cc3s2)CC1	-0.45	0.14
O=C(O)CCN1CCC(Cc2ccccc2)CC1	-1.4	.
COc1ccc(C2c3c(-c4ccc(C)cc4)n[nH]c3C(=O)N2c2ccc(F)cc2)c(OC)c1 (stereo not given)	.	-0.055
Cc1ccc(S(=O)(=O)N2N=C(c3ccccc3)CC2c2ccc(Cl)cc2)cc1 (stereo not given)	1.1	0.055
